High-throughput results from PubChem.
Yeast UUG start – modulators of start codon recognition fidelity in yeast. S. cerevisiae UUG-firefly luciferase reporter, luminescence/redox ratio. actives 0.13% (n = 350,000). activity score, % at 18.7 µM;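 active = replicate mean at a twofold rise or more, about +100% in these data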;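 note: firefly luciferase made from a UUG start codon reports start codon fidelity; reporter light over untreated wells divided by growth signal over untreated wells; some hits fall short of that in this replicate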
Rce1 inh – inhibitors of yeast Ras-converting enzyme; Q03530; yeast membranes, quenched prenylated peptide cleavage fluorescence; calls only; actives 0.27% (n = 290,000); AID 2563;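 active = fall in fluorescence gain of 50% or more versus controls, with final raw signal at or below 3038400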;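 note: plate controls were neutral control wells for no effect and wells lacking membranes for full effect; tested at 10 µM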
Target sequence (Q03530 whole entry, looked up): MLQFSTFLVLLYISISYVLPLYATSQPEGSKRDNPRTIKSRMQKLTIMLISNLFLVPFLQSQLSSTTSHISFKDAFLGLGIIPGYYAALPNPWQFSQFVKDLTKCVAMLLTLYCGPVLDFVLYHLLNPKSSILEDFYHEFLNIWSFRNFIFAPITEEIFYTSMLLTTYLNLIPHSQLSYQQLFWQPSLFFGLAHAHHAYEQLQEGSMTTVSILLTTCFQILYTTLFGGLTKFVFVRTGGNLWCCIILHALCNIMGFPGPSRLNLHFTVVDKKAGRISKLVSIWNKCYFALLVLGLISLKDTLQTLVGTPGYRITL
CSC inhib – blocks cancer stem cells; cancer stem cell-like cells viability, luminescence; inhibition, % at 7.5 µM; actives 1.1% (n = 300,000);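 active = mean at 75% or more and at least half the replicates too; tested in HMLE shEcad cells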;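 note: 0% = median of negative and 100% = median of positive control wells; the first replicate is given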
MT1-MMP act inh – MT1-MMP (human) activation inhibition. P50281. HT1080 RFP-PRO-GFP cells, GFP/RFP ratio fluorescence, overnight; percent of plate control window, DMSO zero. GFP/RFP ratio change, % at 20 µM. actives 0.061% (n = 360,000). AID 651647;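 active = GFP/RFP ratio change of at least 30% with cell ATP level not reduced by more than half and red fluorescence within 50% of control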; note: strong numbers were not always called active
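Compound: 20 µM single dose, 1% DMSO / System: HT1080 RFP-PRO-GFP cells / Controls: DMSO and RFP-L50D-GFP cell wells / Read-out basis: GFP/RFP fluorescence ratio / Schedule: overnight compound exposure at 37 °C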
PABP FP inh – blocks human PABP binding to poly(A) RNA; fluorescence polarization; inhibition, % at 35 µM; actives 1% (n = 290,000);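 active = 50% or more with normal probe brightness, or confirmed in later tests; about a fifth of its hits are not listed in these tables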;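 note: calls also rest on retests at 20 µM and on dose response follow-up; controls were probe without protein and protein plus probe with vehicle; some compounds called inactive have numbers as strong as hits; many hits fall short of the cut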
Env fusion inh – inhibitors of HIV Env-mediated cell fusion | HeLa-JRFL Env/CEM21 cell fusion, luciferase | inhibition, % at 12.3 µM | actives 1.1% (n = 360,000) | AID 651610;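 active = mean replicate inhibition score of at least 50 and every replicate individually at or above 50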;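 note: 0% = plate neutral controls and 100% = maraviroc near 300 nM; one replicate is shown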
eIF4H FP inh – inhibitors of RNA binding by human eIF4H; AID 2012; Q15056; inhibition, % at 35 µM; actives 0.94% (n = 290,000); eIF4H fluorescence polarization binding assay;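 active = 50% or more with normal probe brightness, or confirmed in later tests; about a fifth of its hits are not listed in these tables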;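 note: calls also rest on retests at 20 µM and on dose response follow-up; 0% = protein and probe with vehicle and 100% = probe without protein; strong numbers were not always called active; many hits fall short of the cut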
MT1-MMP act inh RFP – also measured in MT1-MMP act inh; calls as there; RFP signal change, %; measured here: RFP expression control read;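 0 = vehicle wells; hits needed this value within 50% of zero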
* = called active by the depositor; & = joins results of further samples.

How did O=C(Nc1cccnc1Cl)c1cc(-c2ccc(Br)cc2)on1 do in these assays?
Yeast UUG start: 2; Rce1 inh: inactive; CSC inhib: 11; MT1-MMP act inh: 0; PABP FP inh: -11; Env fusion inh: -10; eIF4H FP inh: -6; MT1-MMP act inh RFP: 4

How did CC1CCN(C(=O)COC(=O)c2cc3ccccc3cc2O)CC1 do in these assays?
Yeast UUG start: -1; Rce1 inh: inactive; CSC inhib: -1; MT1-MMP act inh: 5; PABP FP inh: 5; Env fusion inh: -27; eIF4H FP inh: 3; MT1-MMP act inh RFP: 6

What do the screens show for `Cc1ccc(NC(=S)Nc2ccc(S(=O)(=O)Nc3ncccn3)cc2)cc1Cl`?
Rce1 inh: inactive; CSC inhib: -8; PABP FP inh: 2; eIF4H FP inh: -14

How did O=C(c1ccc(=O)oc1)N1CCCc2ccccc21 do in these assays?
Yeast UUG start: -7; Rce1 inh: inactive; CSC inhib: -7; MT1-MMP act inh: -10; PABP FP inh: -1; eIF4H FP inh: 27; MT1-MMP act inh RFP: 5

How did CCc1cccc(CC)c1C(O)c1cccnc1 (stereo not drawn) do in these assays?
Yeast UUG start: -14; Rce1 inh: inactive; CSC inhib: 1; MT1-MMP act inh: 2; PABP FP inh: 15; Env fusion inh: 3; eIF4H FP inh: -4; MT1-MMP act inh RFP: 2

How did CC(C)(C)c1ccc(N/N=C(\C#N)S(=O)(=O)C(C)(C)C)cc1 do in these assays?
Rce1 inh: inactive; CSC inhib: 1; MT1-MMP act inh: -2; PABP FP inh: 8; Env fusion inh: 26; eIF4H FP inh: 3; MT1-MMP act inh RFP: -21

Results for CCOC(=O)[C@H]1[C@H]2COc3ccc(Cl)cc3[C@@H]2N2C(=O)[C@@H](CO)NC(=O)[C@@]12C ?
Yeast UUG start: -19; MT1-MMP act inh: 2; Env fusion inh: -26; MT1-MMP act inh RFP: 7

Results for CCOC(=O)N1CCN(C(=O)c2ccccc2NC(=O)c2ccc(OC)cc2)CC1 ?
Rce1 inh: inactive; CSC inhib: -15; MT1-MMP act inh: -3; PABP FP inh: 4; eIF4H FP inh: -6; MT1-MMP act inh RFP: -2

Results for Cc1cc(NS(=O)(=O)c2ccccc2)c([N+](=O)[O-])cc1C ?
Rce1 inh: active; CSC inhib: -10; MT1-MMP act inh: 1; PABP FP inh: -7; Env fusion inh: 11; eIF4H FP inh: 4; MT1-MMP act inh RFP: 1

Results for COC(=O)c1ccc(COc2cc(O)c3c(c2)OC(C)(C)CC3=O)cc1 ?
Yeast UUG start: -14; Rce1 inh: inactive; CSC inhib: -10; MT1-MMP act inh: 1; PABP FP inh: 19; eIF4H FP inh: -10; MT1-MMP act inh RFP: -4

Compounds above containing a carbonyl joined to an NH by a bond outside any ring (2):
How did O=C(Nc1cccnc1Cl)c1cc(-c2ccc(Br)cc2)on1 do in these assays?
Yeast UUG start: 2; Rce1 inh: inactive; CSC inhib: 11; MT1-MMP act inh: 0; PABP FP inh: -11; Env fusion inh: -10; eIF4H FP inh: -6; MT1-MMP act inh RFP: 4

Results for CCOC(=O)N1CCN(C(=O)c2ccccc2NC(=O)c2ccc(OC)cc2)CC1 ?
Rce1 inh: inactive; CSC inhib: -15; MT1-MMP act inh: -3; PABP FP inh: 4; eIF4H FP inh: -6; MT1-MMP act inh RFP: -2

New compounds follow
How did Cc1ccccc1/C=N/N1CCN(c2ccccc2)CC1 do in these assays?
Yeast UUG start: -15; Rce1 inh: inactive; CSC inhib: 8; MT1-MMP act inh: 2; PABP FP inh: 20; Env fusion inh: -29; eIF4H FP inh: -1; MT1-MMP act inh RFP: 0

What do the screens show for `COc1ccc(-n2cnnc2SCC(=O)Nc2cc(S(=O)(=O)N3CCCCC3)ccc2C)cc1`?
Yeast UUG start: -15; Rce1 inh: inactive; CSC inhib: -7; MT1-MMP act inh: 4; PABP FP inh: -1; Env fusion inh: 6; eIF4H FP inh: -2; MT1-MMP act inh RFP: -2

How did CCOC(=O)N1CCC(Nc2c(OCC)c(=O)c2=O)CC1 do in these assays?
Yeast UUG start: -2; Rce1 inh: inactive; CSC inhib: -13; MT1-MMP act inh: 1; PABP FP inh: -2; Env fusion inh: 7; eIF4H FP inh: -1; MT1-MMP act inh RFP: 2

How did O=C(Cc1ccc(S(=O)(=O)N2CCOCC2)s1)N1CCN(S(=O)(=O)c2cccc(Cl)c2)CC1 do in these assays?
Yeast UUG start: -1; Rce1 inh: inactive; CSC inhib: 23; MT1-MMP act inh: -7; MT1-MMP act inh RFP: 0

What do the screens show for `CC(C)(C)CC(=O)Nc1ccc(Nc2ccccc2)cc1`?
Yeast UUG start: -21; Rce1 inh: inactive; CSC inhib: -11; MT1-MMP act inh: 4; PABP FP inh: 10; Env fusion inh: -12; eIF4H FP inh: -2; MT1-MMP act inh RFP: 6

How did COC(=O)c1cc(Cl)c(NS(=O)(=O)c2ccccc2)cc1OC do in these assays?
Yeast UUG start: -13; Rce1 inh: inactive; CSC inhib: -1; MT1-MMP act inh: 2; PABP FP inh: 7; eIF4H FP inh: -10; MT1-MMP act inh RFP: -3

How did CC(=O)c1cc(-c2ccccc2)n(CC(=O)NCc2cccs2)c1C do in these assays?
Yeast UUG start: -19; Rce1 inh: inactive; CSC inhib: -2; MT1-MMP act inh: -1; PABP FP inh: 7; eIF4H FP inh: 0; MT1-MMP act inh RFP: -4

What do the screens show for `CN1CCN(c2nc(-c3ccc(Cl)cc3)nc3ccccc23)CC1`?
Yeast UUG start: 0; Rce1 inh: inactive; MT1-MMP act inh: -6; PABP FP inh: -5; Env fusion inh: -5; eIF4H FP inh: -15; MT1-MMP act inh RFP: -4

What do the screens show for `COc1cccc(C(O)c2ncc(-c3ccccc3Cl)[nH]2)c1` (stereo not drawn)?
Yeast UUG start: -15; MT1-MMP act inh: 0; Env fusion inh: -20; MT1-MMP act inh RFP: 2

What do the screens show for `C[C@H](CO)N1C[C@H](C)[C@@H](CN(C)S(C)(=O)=O)Oc2ccc(NC(=O)NC3CCCCC3)cc2C1=O`?
Yeast UUG start: -11&-5; MT1-MMP act inh: -1; Env fusion inh: -41; MT1-MMP act inh RFP: 5

How did Fc1cccc(Cc2c(-c3ccco3)nc3c(Cl)cc(C(F)(F)F)cn23)c1 do in these assays?
Yeast UUG start: -12; MT1-MMP act inh: 3; Env fusion inh: -5; MT1-MMP act inh RFP: 2

Results for CCN1CCN(c2ccc(NC(=O)c3cccnc3)cc2Cl)CC1 ?
Rce1 inh: inactive; CSC inhib: 3; MT1-MMP act inh: -6; PABP FP inh: 4; Env fusion inh: -23; eIF4H FP inh: -10; MT1-MMP act inh RFP: -2

How did CC(C)c1nnc(NC(=O)c2cccnc2)s1 do in these assays?
Yeast UUG start: -11; Rce1 inh: inactive; CSC inhib: -7; MT1-MMP act inh: -5; PABP FP inh: 2; eIF4H FP inh: -4; MT1-MMP act inh RFP: 0

What do the screens show for `CC(C)C[C@H](NC(=O)N1c2ccccc2NC(=O)[C@@H]1C(C)C)C(=O)N[C@@H](Cc1ccccc1)C(=O)O`?
Yeast UUG start: -3; Rce1 inh: inactive; CSC inhib: -3; MT1-MMP act inh: 0; PABP FP inh: 2; eIF4H FP inh: 4; MT1-MMP act inh RFP: -1

How did Cc1onc(-c2ccccc2)c1C(=O)Nc1nnc(CC(C)C)s1 do in these assays?
Yeast UUG start: 2; Rce1 inh: inactive; CSC inhib: -10; MT1-MMP act inh: -1; PABP FP inh: 0; Env fusion inh: 1; eIF4H FP inh: -15; MT1-MMP act inh RFP: 1

Results for O=C(Nc1ccc(Cl)cc1)C1Cc2c(-c3cccc(F)c3)ccnc2O1 (stereo not drawn) ?
Yeast UUG start: -29; MT1-MMP act inh: 10; Env fusion inh: 8; MT1-MMP act inh RFP: -2

How did COc1ccc(OCCOC(=O)CNC(=O)c2ccc(Cl)cc2Cl)cc1 do in these assays?
Yeast UUG start: -4; Rce1 inh: inactive; CSC inhib: 13; MT1-MMP act inh: -1; Env fusion inh: -10; MT1-MMP act inh RFP: 1

What do the screens show for `O=C(C[n+]1ccccc1)Nc1nc2ccccc2s1`?
Yeast UUG start: 3; Rce1 inh: inactive; CSC inhib: 1; MT1-MMP act inh: 2; PABP FP inh: 9; Env fusion inh: -104; eIF4H FP inh: 15; MT1-MMP act inh RFP: 2

How did COc1ccccc1NC(=O)CSc1nnnn1-c1ccc(C(=O)O)cc1 do in these assays?
Rce1 inh: inactive; CSC inhib: -22; MT1-MMP act inh: 1; PABP FP inh: -3; Env fusion inh: -2; eIF4H FP inh: -3; MT1-MMP act inh RFP: 1

How did Cc1cc(N2CCN(C/C=C/c3ccccc3)CC2)n2ncnc2n1 do in these assays?
Yeast UUG start: -15; Rce1 inh: inactive; CSC inhib: -5; MT1-MMP act inh: 2; PABP FP inh: -1; Env fusion inh: 34; eIF4H FP inh: 12; MT1-MMP act inh RFP: -19

How did CC(C)(C)c1ccc(COC(=O)CNC(=O)CNC(=O)Cc2ccccc2)cc1 do in these assays?
Yeast UUG start: -13; Rce1 inh: inactive; CSC inhib: -13; MT1-MMP act inh: 3; PABP FP inh: 11; Env fusion inh: 8; eIF4H FP inh: 3; MT1-MMP act inh RFP: 4

How did COc1ccc(-c2nsc(C(=O)N(c3ccc(F)cc3)C(C(=O)NC3CCCC3)c3ccc(OC)cc3)c2N)cc1 (stereo not drawn) do in these assays?
Yeast UUG start: -12; Rce1 inh: inactive; MT1-MMP act inh: -18; PABP FP inh: -8; Env fusion inh: -4; eIF4H FP inh: 4; MT1-MMP act inh RFP: -15

What do the screens show for `O=C(COC(=O)CCCNC(=O)c1ccc(Cl)cc1)NCc1ccccc1Cl`?
Yeast UUG start: 24; Rce1 inh: inactive; CSC inhib: -5; MT1-MMP act inh: 2; PABP FP inh: 0; Env fusion inh: -6; eIF4H FP inh: -3; MT1-MMP act inh RFP: 4

Results for O=C(O)c1ccc(-c2noc(-c3ccccc3C(F)(F)F)n2)cc1 ?
Yeast UUG start: -9; Rce1 inh: inactive; CSC inhib: -6; MT1-MMP act inh: -9; Env fusion inh: -51; MT1-MMP act inh RFP: -3

What do the screens show for `CCC(C)NC(=O)Cn1c(=O)n(CCCC(=O)NCc2ccccc2Cl)c(=O)c2ccccc21` (stereo not drawn)?
Yeast UUG start: -19; CSC inhib: 0; MT1-MMP act inh: 4; PABP FP inh: 2; Env fusion inh: -46; eIF4H FP inh: 2; MT1-MMP act inh RFP: 6

What do the screens show for `Cc1nc(NC(=O)CC(C)C)sc1-c1csc(Nc2ccc(Cl)cc2Cl)n1`?
Yeast UUG start: -15; Rce1 inh: inactive; CSC inhib: 80*; MT1-MMP act inh: 5; PABP FP inh: -2; Env fusion inh: -7; eIF4H FP inh: -7; MT1-MMP act inh RFP: -2

How did Cc1nnc(SCC(=O)Nc2ccc(N(C)C)cc2)n(N)c1=O do in these assays?
Yeast UUG start: -14; Rce1 inh: inactive; CSC inhib: -10; MT1-MMP act inh: 1; PABP FP inh: -2; Env fusion inh: 3; eIF4H FP inh: 7; MT1-MMP act inh RFP: 4

Results for COc1ccc(N2CCN(C(=O)CCC(=O)N3CC(C)Oc4ccc(C)cc43)CC2)cc1 (stereo not drawn) ?
Yeast UUG start: 9; Rce1 inh: inactive; CSC inhib: -3; MT1-MMP act inh: 7; PABP FP inh: -2; Env fusion inh: 27; eIF4H FP inh: 1; MT1-MMP act inh RFP: -5

What do the screens show for `N#C/C(=C(/O)C(Cl)c1ccccc1)c1nc2ccccc2s1` (stereo not drawn)?
Yeast UUG start: 0; Rce1 inh: inactive; CSC inhib: -7; MT1-MMP act inh: 0; PABP FP inh: -1; Env fusion inh: 7; eIF4H FP inh: 3; MT1-MMP act inh RFP: 1

Results for O=C(O)/C=C/c1cn(-c2ccccc2)nc1-c1cc2ccccc2o1 ?
Rce1 inh: inactive; CSC inhib: 3; MT1-MMP act inh: 5; PABP FP inh: -1; Env fusion inh: -1; eIF4H FP inh: -10; MT1-MMP act inh RFP: 0

How did Cc1csc(=O)n1CCC(=O)OCC(=O)c1c(N)n(C)c(=O)n(C)c1=O do in these assays?
Yeast UUG start: -19; Rce1 inh: inactive; CSC inhib: -7; MT1-MMP act inh: 2; Env fusion inh: 15; MT1-MMP act inh RFP: 4

Not all compounds are listed; the hit share may differ from the screen's.
